# HNF4A DNA FP: change in binding of human HNF4A to DNA, primary screen, biochemical, fluorescence polarization, FITC-DNA | Hepatocyte nuclear factor 4-alpha (Homo sapiens), P41235 | AID 1224865, 2016 | activity change, % at 10 µM | 1 h | 0.3% of 360,000 active; in the data active means activity change above about 30%, passing the limit was not always enough;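 further: controls were the assay level and a saturating level of protein; the project sought stronger binding though the title names inhibitors; some compounds called inactive have numbers as strong as hits; positive values seem to mean higher polarization but the record does not say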
# Target sequence (P41235 whole entry, looked up): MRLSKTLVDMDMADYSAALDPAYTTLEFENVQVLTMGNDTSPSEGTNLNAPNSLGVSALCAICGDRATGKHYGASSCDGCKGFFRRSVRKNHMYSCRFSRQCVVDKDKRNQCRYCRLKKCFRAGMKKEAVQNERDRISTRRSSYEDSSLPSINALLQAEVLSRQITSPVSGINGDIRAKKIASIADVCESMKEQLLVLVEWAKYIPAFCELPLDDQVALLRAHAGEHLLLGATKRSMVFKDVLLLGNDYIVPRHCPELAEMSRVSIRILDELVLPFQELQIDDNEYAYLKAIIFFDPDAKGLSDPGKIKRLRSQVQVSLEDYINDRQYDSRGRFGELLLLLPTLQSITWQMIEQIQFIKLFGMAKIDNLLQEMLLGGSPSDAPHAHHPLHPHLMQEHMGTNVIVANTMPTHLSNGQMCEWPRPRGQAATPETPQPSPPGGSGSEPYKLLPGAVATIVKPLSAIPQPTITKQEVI
# An asterisk follows results filed as active; & = joins results of further samples. These rows are one share of the data. The share of hits here may be higher or lower than overall.
SMILES,HNF4A DNA FP
COCCNC(=O)C1CCCN(C(=O)COc2ccc(Cl)cc2Cl)CC1 (stereo not given),-0.3
COc1ccc(C(O)c2nc(-c3cccc4cccnc34)cs2)cc1 (stereo not given),-1.1
O=c1oc2cc(O)ccc2cc1-c1nc2ccccc2o1,-113
CCOC(=O)C1=C(C)N=c2sc(=Cc3ccc(OCC(=O)O)cc3)c(=O)n2C1c1ccc(Cl)cc1 (stereo not given),8.5
OC(c1ccc(F)cc1)c1nc(-c2cccc(C(F)(F)F)c2)cs1 (stereo not given),3.3
N#Cc1cccc(NC(=O)c2cc(C3CCCCN3C(=O)c3ccc4c(c3)CCO4)on2)c1 (stereo not given),1.5
CC1(C(=O)NS(=O)(=O)c2cccc(F)c2)CCN1C(=O)C1(c2ccc(Cl)cc2)CCC1 (stereo not given),-6.6
CCCc1nc2ccc(C)cn2c1Cc1ccccc1C(F)(F)F,3.9
CC1(C(=O)NS(=O)(=O)c2cccc(Cl)c2)CCN1C(=O)C1CCCCC1 (stereo not given),-4.1
CC1=C(C(=O)N(C)C)CC(CC(=O)NCc2cccs2)C(=O)N1CCCN1CCCC1=O (stereo not given),-0.6
Cc1cc2c(cc1C)-n1nnnc1C(N1CCN(CC(=O)N3CCCC3)CC1)C(=O)N2 (stereo not given),3.5
CCOC(=O)C1=CCN(S(=O)(=O)c2ccccc2Cl)C1c1cccc(C)c1 (stereo not given),1.7
CSCCNC(=O)C1(C)CCN1C(=O)c1sccc1C (stereo not given),-2.1
Cc1cccc(CN2CCN(C3CN(Cc4ccc(F)cc4)S(=O)(=O)C3)CC2)c1 (stereo not given),-0.5
CCCc1nc2c(C)cc(Br)cn2c1Cc1ccc(OC)cc1C,-3.5
O=C(O)CNc1nc(NCc2ccc(Cl)cc2)ccc1[N+](=O)[O-],1.4
CCCc1c(-c2cccc(Cl)c2)ncn1CCc1ccccc1OC,0.3
CCCCc1c(-c2ccc(F)cc2F)ncn1CCc1ccccc1OC,2.1
CCNC(=O)C1(C)CCCN(C(=O)c2cc3ccccc3s2)C1 (stereo not given),-3.6
NC(CCc1ccccc1)c1csc(Nc2ccc(C(=O)NCCCO)cn2)n1 (stereo not given),2.0
COc1ccc(C=C(C(=O)c2ccccc2)c2ccccc2)cc1,0.6
CCOc1ccc(CCN2C(=S)N([C@@H](CC(C)C)CN3CCC[C@@H]3CN3C(=S)NC[C@@H]3Cc3ccc(O)cc3)C[C@@H]2CC(C)C)cc1,2.4
CCOC(=O)C1=CCN(S(=O)(=O)c2ccccc2C)C1c1cccc(F)c1 (stereo not given),4.1
Cc1cccc(S(=O)(=O)N2C[C@@H](O)COC[C@@H]3O[C@H](CC(=O)NCCCN4CCOCC4)CC[C@H]32)c1,2.9
COc1ccc(Cn2cc(CN3CCc4onc(-c5ccccc5OC)c4C3=O)nn2)cc1,2.3
OC(c1ccccc1)c1nc(-c2ccccc2)cs1 (stereo not given),-0.6
O=C(NCC[C@H]1CC[C@H](NS(=O)(=O)c2ccc(F)cc2)[C@@H](CO)O1)c1ccc2c(c1)OCO2,-2.1
CC1CCN(C(=O)c2[nH]c(C(F)(F)F)nc2-c2ccccc2)CC1,-1.0
CCc1nc2c(OCc3ccc(OC)cc3)cccn2c1N(C)C(=O)C(C)C,9.5
COC(=O)[C@@]1(Sc2ccc(C)cc2)CC(=O)N(C(=O)/C=C/c2ccccc2)[C@@H]1c1ccccc1,-1.5
O=C(Nc1ccc2c(c1)OCO2)c1ccc2nc([C@@H]3O[C@H](CO)[C@H](O)[C@H](O)[C@H]3O)[nH]c2c1,0.4
CCc1nc2ccc(C(=O)N3CCN(S(=O)(=O)CC)CC3)cn2c1N(C)Cc1cccs1,-0.2
O=C(Nc1nnc([C@H]2C[C@H](O)[C@@H](CO)O2)s1)C(c1ccccc1)c1ccccc1,3.0
C[C@@H]1CN([C@H](C)CO)C(=O)c2cc(Br)cnc2O[C@H]1CN(C)C(=O)CC1CC1,-2.2
Cc1cccc(C)c1Nc1cn[nH]c1,-2.0
CN1CCN(c2ncnc3c2ncn3[C@H]2CN(C)C[C@@H](CO)O2)CC1,2.6
CN(C)Cc1ncccc1Oc1nc2cc(-c3cccc(Cl)c3)sc2c(=O)n1C,6.3
CC(C)CNC(=O)C1(C)CCCCCN1C(=O)c1cc2ccccc2s1 (stereo not given),2.5
CCc1nc2c(OCC=C(C)C)cccn2c1N(C)C(=O)c1ccccc1F,-0.7
COc1ccc(C2CC=C(C(C)=O)CN2S(=O)(=O)c2ccc(Cl)cc2)cc1 (stereo not given),-0.5&-0.2

# Of the compounds above, these contain a CF3 group.
SMILES,HNF4A DNA FP
OC(c1ccc(F)cc1)c1nc(-c2cccc(C(F)(F)F)c2)cs1 (stereo not given),3.3
CCCc1nc2ccc(C)cn2c1Cc1ccccc1C(F)(F)F,3.9
CC1CCN(C(=O)c2[nH]c(C(F)(F)F)nc2-c2ccccc2)CC1,-1.0

# A second format for part of the listing above.
molecule	HNF4A DNA FP
COc1ccc(Cn2cc(CN3CCc4onc(-c5ccccc5OC)c4C3=O)nn2)cc1	2.3
OC(c1ccccc1)c1nc(-c2ccccc2)cs1 (stereo not given)	-0.6

# Remaining list, next part:
SMILES,HNF4A DNA FP
Cc1c(C(=O)NCc2ccc(Cl)c(Cl)c2)sc(=O)n1Cc1ccccc1F,3.5
O=C(NC(c1ccccc1)c1cnccn1)C1CCN(Cc2ccc(Cl)c(Cl)c2)CC1 (stereo not given),-2.4
CC[C@@H]1Cc2[nH][nH]c(=O)c2[C@H](CC(C)C)O1,1.6
O=C(Nc1ccc2c(c1)OCCO2)C(CCc1ccccc1)N(Cc1ccccc1)Cc1ccccc1 (stereo not given),4.1
O=C1CCCN1CCCNc1nc(NCc2ccccc2)nc2ccsc12,1.9
CCOc1ccc2nc(S(=O)(=O)NC(=O)C3(C)CCN3C(=O)c3cccc(F)c3)sc2c1 (stereo not given),3.7
O=C(Nc1ccc(Cl)cc1)c1csc([C@@H]2O[C@H](CO)[C@@H](O)[C@H]2O)n1,1.5
CO[C@H]1CN(C)C(=O)c2ccc(NC(=O)C3CCC3)cc2OC[C@H](C)N(Cc2ccc(F)cc2)C[C@@H]1C,-5.1
Cn1c(=O)c2cc(NC(=O)NCCc3cccs3)ccc2n1Cc1ccccc1,-3.4
CC1(c2nnnn2-c2ccc3c(c2)OCCO3)CCC(=O)N1Cc1cccc(C(F)(F)F)c1 (stereo not given),3.2
CC(C)Oc1cc(F)ccc1-c1cc(C(=O)Nc2cccc(Cl)c2)[nH]n1,0.8
Cc1cc(F)ccc1C(O)c1ncc(-c2ccccc2Cl)[nH]1 (stereo not given),-1.0
Nc1sc2c(c1C(=O)NCCc1ccccc1)CCCC2,-1.5
Cc1ccc(CN2C(=O)CSCC2(C)C(=O)Nc2c(C)cccc2C)cc1 (stereo not given),7.2
COc1ccc(C(C)=O)cc1CN1C(=O)C(C)ON=C1c1cccc(C(F)(F)F)c1 (stereo not given),-0.9
O=C1OCCOC2CCCc3oc(C4=CCCCC4)c1c32 (stereo not given),-2.1
CCCCNc1c(-c2cccc(OC)c2)nc2nc(C)cc(C)n12,2.1
CCOC(=O)CNC(=O)N(C)[C@H]1C[C@H]2c3[nH]c4ccccc4c3CCN2C[C@H]1[C@H](C)O,-1.8
CC(C)(C)c1ccc(CC(=O)N2CCC2(C)C(=O)Nc2ccc3[nH]ncc3c2)cc1 (stereo not given),-1.3
CCOC(=O)C1CCCN(C(=O)c2cc(C#N)cs2)CC1 (stereo not given),1.4
Cc1cc(C)n2c(NC3CCCC3)c(-c3cccnc3)nc2n1,-2.4
COc1ccccc1C(=O)Nc1nnc([C@@H]2C[C@H](O)[C@@H](CO)O2)s1,-7.6
Cc1cc(Br)cn2c(Cc3ccsc3)c(-c3ccccc3)nc12,-17
COc1cccc(-c2cnc3c(NC(C)=O)cc(-c4ccccc4OC)cn23)c1,0.6
CC1(C(=O)NS(=O)(=O)c2ccc3ccccc3c2)CCN1C(=O)C1(c2ccc(Cl)cc2)CCC1 (stereo not given),2.5
CC1(C(=O)Nc2cccc3c2CCCC3)CCN1C(=O)CCc1ccc(Cl)cc1Cl (stereo not given),2.7
CCCCNC(=O)c1nc(-c2cnccn2)oc1-c1ccc(Cl)cc1,-0.3
O=S1(=O)CC(N2CCN(Cc3ccccc3F)CC2)CN1Cc1cn(Cc2ccc(F)cc2)nn1 (stereo not given),-1.2
CCc1nc2c(OCCOc3ccccc3)cccn2c1N(C)C(=O)c1ccc(OC)cc1,1.4
COC(=O)[C@@]12C[C@@H](CC(=O)NCCc3ccccc3OC)C(=O)N(Cc3ccco3)C1=CCC(C)(C)C2,-1.6
OC1c2c(F)cccc2N=C2CCCCCN21 (stereo not given),-0.2
CCc1nc2ccc(C(=O)N3CCN(c4ccccc4)CC3)cn2c1N(C)CCCc1ccccc1,4.2
Cc1cnc(-c2nc3ccccc3n2C(C(=O)Nc2c(C)cccc2C)C2CC2)cn1 (stereo not given),-4.6
O=C(c1ccc(=O)[nH]c1)N(c1ccccc1)C(CCc1ccccc1)c1nc2ccccc2[nH]1 (stereo not given),5.0
Cc1ccc([C@H]2C[C@H](n3cc(-c4ccc(F)cc4)nn3)[C@@H](O)CN2C(=O)C2CCCCC2)cc1,-1.3
CCc1ccc2cc(F)cc(F)c2n1,0.8
CCCCCCCCN1C(=O)[C@H](CC(=O)NCC2CCCCC2)C[C@@]2(C(=O)OC)CC(C)(C)CC=C12,3.8
COc1ccccc1CNc1nc(NCCN2CCNC2=O)c2sccc2n1,1.0
CC(=O)Nc1cnc(-c2cc(C)c(O)c(C)c2)cn1,-3.0
COc1ccc(CN2C(=O)CN(S(C)(=O)=O)CC2(C)C(=O)Nc2c(C)cccc2C)cc1OC (stereo not given),1.8

# Quoted from the listing:
# Value for CCCCNC(=O)c1nc(-c2cnccn2)oc1-c1ccc(Cl)cc1 under HNF4A DNA FP: -0.3
# Value for O=C(c1ccc(=O)[nH]c1)N(c1ccccc1)C(CCc1ccccc1)c1nc2ccccc2[nH]1 (stereo not given) under HNF4A DNA FP: 5.0

# (continued)
SMILES,HNF4A DNA FP
CC1(C(=O)NS(=O)(=O)c2cccc(F)c2)CCN1C(=O)Cc1ccc(-c2ccccc2)cc1 (stereo not given),-3.5
NC(Cc1ccc(C(F)(F)F)cc1)c1csc(NC(=O)Nc2ccccc2Cl)n1 (stereo not given),1.8
COc1ccccc1Cc1c(-c2ccccc2)nc2c(C)cc(Br)cn12,9.1
CCCC[C@@H]1CC2=C(C(=O)OC(C)(C)O2)[C@@H](c2ccc(F)cc2)O1,2.9
COCCN1C(=O)CCC1(C)C(=O)NC1CCCCC1 (stereo not given),-0.8
COc1ccc(-c2ccc(CN3C(CC(C)C)C(=O)N(Cc4cn(CC5CCCCC5)nn4)CCS3(=O)=O)cc2)cc1OC (stereo not given),-0.9
COc1ccc(S(=O)(=O)N2C[C@H]3CON(C)[C@H]3C[C@H]2c2ccc(-c3cccc(F)c3)cc2)cc1,2.6
CC(C)C[C@@H](CN1CCC[C@H]1CN1C(=O)C(=O)NC[C@@H]1Cc1ccccc1)N1C[C@H](Cc2ccc(O)cc2)N(CCc2ccccc2)C(=O)C1=O,-0.9
COc1ccc(C(=O)N2CCCC2(C)C(=O)O)cc1C(F)(F)F (stereo not given),4.0
COc1ccccc1-c1cnc(C(O)c2cc(C)c(OC)c(C)c2)[nH]1 (stereo not given),0.6
Cc1cccc(C)c1-n1nnnc1C(c1ccnc2ccccc12)N1CCCN(C(=O)OC(C)(C)C)CC1 (stereo not given),2.4
O=Cc1ccc(N2CCN(S(=O)(=O)c3ccc4c(c3)CC(=O)N4)CC2)cc1,0.9
CCCCCCn1cc(CN2CC(N3CCN(C4CCN(C)CC4)CC3)CS2(=O)=O)nn1 (stereo not given),-3.4
C[N+](C)(C)CCNC(=O)c1c[nH]c2ccccc12,4.0
O=Cc1ccc(-c2c(-c3ccccc3)oc3c2C(OCCCCO)CCC3)o1 (stereo not given),5.1
OC(c1ccccc1)c1ncc(-c2ccccc2Cl)[nH]1 (stereo not given),-2.3
Cc1ccc2nc(C(C)(C)C)c(Cc3cccc(Cl)c3)n2c1,3.3
O=C(Nc1ccc(F)c(Cl)c1)c1cc(C2CCCN(S(=O)(=O)c3cccs3)C2)on1 (stereo not given),1.3
CCOC(=O)C1(C)CCCCCN1C(=O)c1ccc(OC)cc1 (stereo not given),2.4
Cc1cncc(NCc2ccc3c(c2)OCO3)n1,2.9
COc1cc(Nc2ncc3c(n2)CCN(C(=O)Nc2ccc(C(C)C)cc2)C3)cc(OC)c1OC,0.5
COCCNc1nc(NCC2CCCCC2)c2sc(-c3ccccc3)cc2n1,3.4
Cc1noc(C)c1-c1ccc(C(=O)NCC(C)C)c2occc12,1.7
CC(C)Oc1cccc(NC(=O)C2(C)CCCN2C(=O)C(C)C)c1 (stereo not given),-1.3
CC(C)(C)NC(=O)C(c1ccccc1F)n1c(=O)c(-c2ccco2)nc2ccccc21 (stereo not given),28
CCCCCCCCN1C(=O)[C@H](CC(=O)N2CCC(c3ccccc3)CC2)C[C@@]2(C(=O)OC)CC(C)(C)CC=C12,3.6
CCn1nccc1NC(=O)c1csc([C@@H]2C[C@H](O)[C@@H](CO)O2)n1,-2.6
COc1ccc(C2=Nc3ccccc3N(C(=O)Cc3cc(OC)cc(OC)c3)C2C(=O)NC(C)C)cc1 (stereo not given),4.8
COc1ccc(C(C(=O)NC2CCCCC2)n2c(=O)c(-c3cc4ccccc4[nH]3)nc3ccccc32)cc1 (stereo not given),3.3
O=C1NC[C@@H](CCCCN2C[C@H](Cc3ccccc3)N(Cc3ccccc3)C(=O)C2=O)N(CC2CCCCC2)C1=O,2.0

# Fetched by structure from the entries so far (2):
SMILES,HNF4A DNA FP
O=C1NC[C@@H](CCCCN2C[C@H](Cc3ccccc3)N(Cc3ccccc3)C(=O)C2=O)N(CC2CCCCC2)C1=O,2.0
COCCNc1nc(NCC2CCCCC2)c2sc(-c3ccccc3)cc2n1,3.4

# Screening data as filed in PubChem BioAssay.
